Source: PubChem BioAssay (several laboratories)
PKD1 kinase inh: inhibitors of human PKD1 kinase, biochemical, fluorescence polarization | PKD1 kinase fluorescence polarization assay | inhibition, %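 (about 10 µM by stock and volumes)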 | 0.056% of 200,000 active;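 active = inhibition of 50% or more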;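 also: controls were vehicle for no effect and a reference inhibitor for full effect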
Insulin prom inh: inhibitors of insulin promoter-driven GFP, primary screen, imaging, TRM-6 cells (human fetal islet line), eGFP reporter, cell count. AID 1273, 2008. 0.9% of 130,000 active. inhibition, % at 2 µM. reporter expression induced with tamoxifen;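 active = inhibition above the mean plus 3 SD, with well images judged a real hit on visual review, cut at about 60% in these data, passing the limit was not always enough; inconclusive = inhibition over the cutoff but images rejected on review; inactive = inhibition not above the cutoff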
RGS16-Gao: modulators of RGS16 binding to Galphao, primary screen, biochemical, human proteins, multiplexed bead flow cytometry. Regulator of G-protein signaling 16 (Homo sapiens) + Guanine nucleotide-binding protein …. bead-based flow cytometry RGS16-Galphao binding, fluorescence; actives lie on both sides. binding response (% of control), % at 10 µM. 0.38% of 220,000 active;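 active = below 25% or above 175%, edge rows of some plates excepted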;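 also: Galphao activated by GDP with aluminum fluoride before binding; 100% = wells without compound and 0% = beads without RGS; some results beyond the cut were filed as inactive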
Target sequence (O15492 whole entry, looked up): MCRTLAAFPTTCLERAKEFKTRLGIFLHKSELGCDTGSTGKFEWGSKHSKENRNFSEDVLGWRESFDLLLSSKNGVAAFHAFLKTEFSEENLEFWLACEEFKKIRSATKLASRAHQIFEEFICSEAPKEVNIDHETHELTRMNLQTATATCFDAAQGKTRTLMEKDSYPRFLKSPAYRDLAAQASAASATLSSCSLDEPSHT
Target sequence (P09471 whole entry, looked up): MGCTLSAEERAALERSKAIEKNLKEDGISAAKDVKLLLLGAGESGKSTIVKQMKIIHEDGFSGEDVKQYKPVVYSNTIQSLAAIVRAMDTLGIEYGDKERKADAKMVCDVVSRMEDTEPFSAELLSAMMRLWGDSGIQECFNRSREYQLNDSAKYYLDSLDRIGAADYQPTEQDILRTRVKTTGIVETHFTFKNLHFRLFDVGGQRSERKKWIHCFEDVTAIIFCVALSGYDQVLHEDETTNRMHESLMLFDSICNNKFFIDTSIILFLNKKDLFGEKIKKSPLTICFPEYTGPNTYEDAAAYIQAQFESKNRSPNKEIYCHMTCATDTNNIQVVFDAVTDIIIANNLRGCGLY
HSV augment: enhancers of HSV replication in host cells, fold increase, host cell viability; HSV replication augmentation in cells; maximum fold increase; 0.005% of 220,000 active; AID 1956, 2009;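 active = peak rise of 1.5-fold or more in the series; inconclusive = self-fluorescent or not available for retest; tested in PC3 cells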;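 also: first round at 10 µM; read as green reporter fluorescence; hits show the peak of a series up to 25 µM; 1 = signal of infected wells without compound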
GALR2 ag: GALR2 receptor agonists, primary screen, cell-based. Galanin receptor type 2 (Homo sapiens), O43603. GALR2-expressing cells, agonist activation read-out. activation, %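 (tested at 5 µM)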. 0.48% of 140,000 active;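 active = above mean plus 3 SD of all compounds, about 5% in these data, not always enough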;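 also: 0% = vehicle buffer wells and 100% = reference agonist at full effect; tested in CHO reporter cells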
Target sequence (O43603 whole entry, looked up): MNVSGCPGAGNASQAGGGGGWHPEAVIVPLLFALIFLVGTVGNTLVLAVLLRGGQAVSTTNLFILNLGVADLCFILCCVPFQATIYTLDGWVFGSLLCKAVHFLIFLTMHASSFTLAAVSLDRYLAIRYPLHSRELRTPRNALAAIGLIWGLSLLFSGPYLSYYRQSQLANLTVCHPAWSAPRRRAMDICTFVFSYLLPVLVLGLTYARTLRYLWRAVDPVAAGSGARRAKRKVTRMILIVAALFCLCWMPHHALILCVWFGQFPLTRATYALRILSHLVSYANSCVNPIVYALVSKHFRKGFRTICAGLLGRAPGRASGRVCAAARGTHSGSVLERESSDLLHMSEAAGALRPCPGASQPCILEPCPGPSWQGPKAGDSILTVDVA
Insulin prom inh cell count: recorded beside Insulin prom inh, whose call it bears; normalized cell count, %; measured here: cell count, toxicity; reference of the scale not given here;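 cells exposed to compound for 48 h; stained nuclei by imaging scaled within each plate; lower means fewer cells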
HSV augment primary fold: also measured in HSV augment; calls as there; fold increase; compound at 10 µM; measured here: primary screen fold increase 10 uM; tested in PC3 cells;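 GFP signal in the first replicate; 1 = infected wells without compound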
* marks the source's active call; other numbers are inactive results; i = inactive; u = inconclusive; x = no result given.

cpd	SMILES	PKD1 kinase inh	Insulin prom inh	Insulin prom inh cell count	RGS16-Gao	HSV augment	HSV augment primary fold	GALR2 ag
1	Cc1cnc2cc(Cl)c(Cl)cc2n1	3	61	124	102	i	0.78	-2.4
2	CCCCNC(=O)[C@H](CSCc1ccccc1)N1Cc2ccccc2C1=O	1	-67	89	x	i	0.84	-0.6
3	COc1ccc(CC2(CO)CCN(C(C)COc3ccccc3)CC2)cc1 (stereo not drawn)	-7	13	111	102	i	0.8	x
4	O=C(/C=C/Nc1ccc(F)cc1F)c1ccco1	-1	x	x	102	i	0.95	x
5	COc1ccc(C(=O)NC(=S)N2CC(C)OC(C)C2)cc1 (stereo not drawn)	6	-17	112	96	i	1.2	1.0
6	CCN(CC(=O)NCc1ccc(F)cc1)CC(=O)Nc1ccccc1-c1ccccc1	-4	-94	92	94	i	1	x
7	COc1ccc(S(=O)(=O)N(CCc2ccccc2)CC(=O)N/N=C/c2ccc3c(c2)OCO3)cc1	5	-28	156	103	i	0.85	0.4
8	O=C(NC12CC3CC(CC(C3)C1)C2)N1CCN(S(=O)(=O)c2ccc(Cl)cc2)CC1	0	x	x	102	i	0.87	-2.5
9	COc1ccc(CCC(C)NC2C3CC4CC(C3)CC2C4)cc1 (stereo not drawn)	6	-53	155	107	x	x	-0.2
10	CCc1ccc(NC(=O)CCn2ccnc2C)cc1	-6	-6	89	105	i	1.1	-1.6
11	Cc1ccc(CNC(=O)Cc2nc3nc(C)cc(C)n3n2)cc1	-3	x	x	135	i	0.98	0.3
12	C/C(=N\Nc1nc(N2CCOCC2)nc(N2CCOCC2)n1)c1cccs1	6	33	161	109	i	0.93	x
13	CCCc1nc2n[nH]c(N)c2c2c1COC(C)(C)C2	5	-421	55	106	i	0.98	-2.0
14	CC(C)c1onc(C(=O)Nc2cccc(O)c2)c1[N+](=O)[O-]	10	-14	112	93	i	0.95	x
15	Cc1ccc(N2C(=O)C(c3c(C)[nH]n(-c4ccccc4)c3=O)(C(F)(F)F)C3=C2CC(C)(C)CC3=O)cc1 (stereo not drawn)	-2	53	104	105	i	1	2.8
16	CC1(C)Cc2c(sc3nc(SCC(=O)N4CCOCC4)nc(N)c23)CO1	-4	x	x	105	i	0.97	0.2
17	CC(Oc1ccccc1)C(=O)NC1C(=O)N2C1SC(C)(C)C2C(=O)O (stereo not drawn)	1	x	x	101	i	0.92	x
18	Cc1ccc(N2C(=O)/C(=C/c3cccnc3)SC2=S)cc1	1	-5	52	50	i	0.94	0.5
19	CCN(CC)CCCNC(=O)CNC(=O)c1nn(-c2ccc(OC)cc2)c(=O)c2ccccc12	1	60	126	98	i	0.99	x
20	O=C(Nc1ccccc1)c1ccc(S(=O)(=O)NCC2CCCO2)cc1 (stereo not drawn)	-9	3	124	102	i	1	-0.2

Entries from the list above with four or more nitrogen atoms:
cpd	SMILES	PKD1 kinase inh	Insulin prom inh	Insulin prom inh cell count	RGS16-Gao	HSV augment	HSV augment primary fold	GALR2 ag
11	Cc1ccc(CNC(=O)Cc2nc3nc(C)cc(C)n3n2)cc1	-3	x	x	135	i	0.98	0.3
12	C/C(=N\Nc1nc(N2CCOCC2)nc(N2CCOCC2)n1)c1cccs1	6	33	161	109	i	0.93	x
13	CCCc1nc2n[nH]c(N)c2c2c1COC(C)(C)C2	5	-421	55	106	i	0.98	-2.0
16	CC1(C)Cc2c(sc3nc(SCC(=O)N4CCOCC4)nc(N)c23)CO1	-4	x	x	105	i	0.97	0.2
19	CCN(CC)CCCNC(=O)CNC(=O)c1nn(-c2ccc(OC)cc2)c(=O)c2ccccc12	1	60	126	98	i	0.99	x

Further results follow:
cpd	SMILES	PKD1 kinase inh	Insulin prom inh	Insulin prom inh cell count	RGS16-Gao	HSV augment	HSV augment primary fold	GALR2 ag
21	COC(=O)c1cc2occc2n1CC(=O)Nc1ccc(C)cc1C	-6	x	x	106	i	0.76	-1.5
22	CCN(CC)C(=O)CCS(=O)(=O)c1cccc2nonc12	0	7	129	101	i	1	x
23	O=C(O)c1cc([N+](=O)[O-])ccc1C(=O)Nc1ccccc1	7	-3	94	106	i	0.94	0.0
24	CCCc1cc(C(=O)Nc2ccc(C(C)=O)cc2)no1	-1	x	x	97	i	0.91	-1.6
25	COc1ccccc1C1CCN(C(=O)c2cnn(-c3ccccc3)c2C)CC1	x	x	x	99	i	1.2	x
26	O=S(=O)(c1ccccc1)c1nc(-c2ccco2)oc1NCCCn1ccnc1	-3	0	82	131	i	1	-2.0
27	CSc1oc(-c2ccccc2)nc1C(N)=O	6	22	111	100	i	0.84	-0.3
28	Cc1ccc(C(=O)Nc2cccc(C(=O)N3CCOCC3)c2)cc1	-2	15	170	108	i	0.98	-1.3
29	CC(C)C12CN3CC(C(C)C)(CN(C1)C3c1ccc([N+](=O)[O-])o1)C2=O (stereo not drawn)	x	x	x	101	i	1.1	x
30	CC(=O)NCCn1c(SCC(=O)NCCC2=CCCCC2)nc2ccccc2c1=O	-23	x	x	95	i	0.8	-0.7
31	COCCn1c(C(=O)N2CCCC2)cc2c1C[C@H]1CN(C(=O)c3ccccc3)[C@@](Cc3ccc(F)cc3)(C(=O)OC)[C@@H]21	-8	18	120	98	i	0.96	0.5
32	Cc1sc(NC(=O)c2ccccc2)c(C(=O)NC(C)C)c1C	0	27	60	97	i	0.9	-2.3
33	O=C(Nc1cccc(C(F)(F)F)c1)N1CCC(c2nc(-c3ccc(F)cc3)no2)CC1	-6	x	x	73	i	1.1	-0.1
34	COc1ccc(OC(=O)c2ccc3nsnc3c2)cc1	3	31	80	115	i	0.67	-1.9
35	COc1ccc(CCNC(=O)c2ccc(CSc3ccccc3)o2)cc1	-7	27	46	105	i	0.97	x
36	CC(=O)N1C(Nc2ccc(Cl)cc2)CCN1c1ccccc1 (stereo not drawn)	-3	7	158	x	i	0.71	0.0
37	CCC(C)(C)C1CCc2nc3ccccc3c(C(=O)OC(C)C(=O)Nc3c(C)n(C)n(-c4ccccc4)c3=O)c2C1 (stereo not drawn)	-3	38	123	115	i	0.8	0.6
38	CCc1ccc(N2CC(C(=O)Nc3cccnc3)CC2=O)cc1 (stereo not drawn)	-9	-3	60	96	x	x	-1.5
39	Cc1ccc(/C=C2\SC(=S)N(c3cccnc3)C2=O)o1	x	x	x	99	i	1.2	x
40	O=S(=O)(NCCc1cn2ccccc2n1)c1ccc2c(c1)OCCO2	-7	x	x	93	i	1.1	-4.6

Next compounds:
Values run as follows: PKD1 kinase inh, Insulin prom inh, Insulin prom inh cell count, RGS16-Gao, HSV augment, HSV augment primary fold, GALR2 ag
#41 COc1ccc(NC(=O)CSc2ncnc3c2cnn3CCc2ccccc2)cc1
 : 1, x, x, -12*, i, 0.89, -5.1
#42 COc1ccc(S(=O)(=O)N/N=c2\oc3c(OC)cccc3cc2S(=O)(=O)c2ccc(C)cc2)cc1OC
 : -3, x, x, 105, i, 0.85, x
#43 O=C(Cc1ccc(Br)cc1)N1CCN(c2ccccc2)CC1
 : -12, -467, 47, 108, i, 0.82, -1.9
#44 O=C(Nc1cc(S(=O)(=O)Nc2ccccc2Cl)ccc1O)c1sc2cc(Cl)ccc2c1Cl
 : -7, -28, 61, 104, i, 1.2, x
#45 O=C1S/C(=C/c2ccc(N3CCOCC3)o2)C(=O)N1Cc1c(F)cccc1Cl
 : 6, -178, 119, 90, u, x, -3.2
#46 CC(CC(=O)N1CCc2ccccc21)c1ccccc1 (stereo not drawn)
 : 0, x, x, 107, i, 0.97, -0.4
#47 CCC(=O)Nc1cccc2cccnc12
 : -3, x, x, 96, i, 0.9, x
#48 CCOc1ccccc1C1C2CCCCC2(O)CCN1C(=O)c1cccs1 (stereo not drawn)
 : 2, x, x, 106, i, 0.93, 0.0
#49 COc1cc(N(C)C)c([N+](=O)[O-])cc1C(=O)N1CCOCC1
 : -9, x, x, 109, i, 0.9, x
#50 O=C(CCn1c(=O)c2ccccc2n(CC(=O)N2CCN(c3ccccc3)CC2)c1=O)NCc1ccco1
 : -2, -111, 61, 102, i, 1.1, x

Arranged by molar mass (rising): 3 of the compounds above
Values run as follows: PKD1 kinase inh, Insulin prom inh, Insulin prom inh cell count, RGS16-Gao, HSV augment, HSV augment primary fold, GALR2 ag
#43 O=C(Cc1ccc(Br)cc1)N1CCN(c2ccccc2)CC1
 : -12, -467, 47, 108, i, 0.82, -1.9
#45 O=C1S/C(=C/c2ccc(N3CCOCC3)o2)C(=O)N1Cc1c(F)cccc1Cl
 : 6, -178, 119, 90, u, x, -3.2
#42 COc1ccc(S(=O)(=O)N/N=c2\oc3c(OC)cccc3cc2S(=O)(=O)c2ccc(C)cc2)cc1OC
 : -3, x, x, 105, i, 0.85, x

Returning to the listing, repeating the 5 entries before the break.
Values run as follows: PKD1 kinase inh, Insulin prom inh, Insulin prom inh cell count, RGS16-Gao, HSV augment, HSV augment primary fold, GALR2 ag
#46 CC(CC(=O)N1CCc2ccccc21)c1ccccc1 (stereo not drawn)
 : 0, x, x, 107, i, 0.97, -0.4
#47 CCC(=O)Nc1cccc2cccnc12
 : -3, x, x, 96, i, 0.9, x
#48 CCOc1ccccc1C1C2CCCCC2(O)CCN1C(=O)c1cccs1 (stereo not drawn)
 : 2, x, x, 106, i, 0.93, 0.0
#49 COc1cc(N(C)C)c([N+](=O)[O-])cc1C(=O)N1CCOCC1
 : -9, x, x, 109, i, 0.9, x
#50 O=C(CCn1c(=O)c2ccccc2n(CC(=O)N2CCN(c3ccccc3)CC2)c1=O)NCc1ccco1
 : -2, -111, 61, 102, i, 1.1, x
#51 Cc1ccccc1NC(=O)c1csc2c1CCCC2
 : -9, -19, 88, 102, i, 0.86, -3.5
#52 O=S(=O)(NCc1ccccn1)c1ccc(Cl)s1
 : -1, x, x, 102, i, 0.96, x
#53 Cc1cc(C(=O)Nc2c(C)n(C)n(-c3ccccc3)c2=O)cs1
 : -8, 69, 144, 92, i, 0.92, -2.3
#54 CCN(CC)CCNS(=O)(=O)c1ccc(OC)c(Br)c1
 : 3, -13, 123, 99, i, 0.74, -1.5
#55 Cc1ccc(S(=O)(=O)N2CCOCC2)cc1NC(=O)c1cc2c(s1)CCC2
 : -8, x, x, 100, i, 0.98, -2.8
#56 CN(c1ccccc1)S(=O)(=O)c1ccc(C(=O)NCc2cccs2)cc1
 : x, x, x, 103, i, 0.88, x
#57 CCn1c(N2CCN(S(=O)(=O)c3ccccc3C(F)(F)F)CC2)nc2ccccc21
 : -10, x, x, 106, i, 0.85, -1.2
#58 CCc1ccc(-n2c(=S)sc3c(=O)n(-c4ccccc4OC)c(=S)[nH]c32)cc1
 : -5, 50, 112, 95, i, 0.65, x
#59 CC[C@H](C)[C@H](NC(=O)c1ccccc1)C(=O)Nc1ccc(S(=O)(=O)Nc2cc(C)nc(C)n2)cc1
 : x, x, x, 99, i, 1.1, x
#60 FC(F)Sc1ccc(Nc2ncnc3nc[nH]c23)cc1
 : 0, 45, 69, 38, i, 0.92, -0.5
#61 C/C(=N/NC(=O)c1cc(-c2ccc(Br)s2)[nH]n1)c1ccco1
 : 4, x, x, 114, i, 1, x
#62 O=C(c1ccc(CNS(=O)(=O)c2ccccc2)cc1)N1CCN(Cc2ccccc2)CC1
 : -6, 12, 82, 98, i, 0.8, -1.1
#63 O=C(c1c[nH]c(=O)n(-c2ccccc2)c1=O)N1CCc2ccccc21
 : -7, 21, 136, 104, i, 0.83, -1.1
#64 Cc1ccc(NC(=O)CSc2ncnc3ccccc23)cc1S(=O)(=O)N1CCOCC1
 : x, x, x, 90, i, 0.83, x
#65 Cc1cc(C)n(-c2cc(O)c(-n3nc(C)cc3C)cc2O)n1
 : -7, x, x, 111, i, 1.3, x
#66 Cn1cc(S(=O)(=O)NCc2cccs2)c(=O)n(C)c1=O
 : -8, x, x, 55, i, 0.98, -1.2
#67 COC(=O)c1cn(NC(=O)Cc2ccc(Cl)cc2)c(=O)c2ccccc12
 : -6, 0, 87, 74, i, 0.75, -1.4
#68 COc1ccc(/C=N/Nc2ncc(Br)cn2)c(OC)c1
 : 1, 58, 87, 108, i, 1.1, x
#69 CCn1cc(CNC(=O)c2ccc(Cl)c([N+](=O)[O-])c2)c(C)n1
 : -8, x, x, 107, i, 0.94, -2.6
#70 Cc1ccc(C)c2nc(Cl)c(C#N)cc12
 : -3, x, x, 110, i, 0.96, x
#71 CCc1nnc(NC(=O)C2CCCN2S(=O)(=O)c2ccccc2)s1 (stereo not drawn)
 : -7, -339, 83, 104, i, 1.1, -1.7
